Assay outcomes (PubChem)
VCAM-1 down: suppression of endothelial VCAM-1 upregulation – cell-based, plate reader, pooled HUVEC, TNFa stimulus (AID 454); HUVEC TNFa-induced VCAM-1 surface immunofluorescence, plate reader; numbers were filed only for top-ranked candidate wells; inhibition, % at 5 µM; 10,000 compounds, 0.2% hits;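 active = compound among top-ranked inhibitors of TNF-induced VCAM-1 adhesion protein staining, with the hit upheld by image or statistical review; inactive = the rest, including hits rejected on review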;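 also: 0% = TNFa with vehicle and 100% = cells without TNFa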
VCAM-1 down imaging: inhibitors of TNFa-induced VCAM-1 surface display, imaging, high-content imaging, pooled HUVEC, TNFa stimulus (AID 456); HUVEC TNFa-induced VCAM-1 surface expression, immunofluorescence imaging; numbers were filed only for top-ranked candidate wells; 10,000 compounds, 0.2% hits; inhibition, % at 5 µM; hits with a dose series show IC50 in µM;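 active = top tenth filtered wells with inhibition above zero that passed visual or statistical confirmation; inactive = the rest, including hits rejected on review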;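 also: 0% = stimulated vehicle wells and 100% = unstimulated cells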
VCAM-1 augmentation: boosters of cytokine-driven VCAM-1 levels – imaging, high-content imaging, pooled HUVEC, TNFa stimulus (AID 457); Pooled HUVEC, TNFa-induced VCAM-1 immunofluorescence imaging; hits of this screen are not shown here; calls only; 10,000 compounds, 0.2% hits;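 active = a top-ranked rise in VCAM-1 staining upheld on image or statistical review; inactive = the rest, including candidates rejected on review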;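 also: compounds tested at 5 µM in the well; cells exposed to compound for 24 hours before fixing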
FPR binder: human FPR ligand, with FPRL1 counter-screen; inhibition, %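 (tested at 6.7 µM)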; 24,000 compounds, 0.74% hits; AID 440; P21462; FPR-expressing cells, fluorescent ligand binding, flow cytometry;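 also: 0% = buffer wells and 100% = receptor blocker peptide wells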
Target sequence (P21462 whole entry, looked up): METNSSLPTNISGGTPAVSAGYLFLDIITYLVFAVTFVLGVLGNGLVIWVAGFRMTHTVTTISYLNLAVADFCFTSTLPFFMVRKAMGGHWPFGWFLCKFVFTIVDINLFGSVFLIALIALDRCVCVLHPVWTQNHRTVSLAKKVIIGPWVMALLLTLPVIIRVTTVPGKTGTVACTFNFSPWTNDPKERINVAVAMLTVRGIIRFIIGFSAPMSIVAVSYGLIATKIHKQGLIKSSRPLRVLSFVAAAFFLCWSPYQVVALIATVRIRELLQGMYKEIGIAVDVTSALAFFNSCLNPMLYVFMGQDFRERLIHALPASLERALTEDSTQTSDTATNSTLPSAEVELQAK
FPRL1 ligand: binds the human formylpeptide receptor-like-1 FPRL1; inhibition, %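 (tested at 6.7 µM)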; 24,000 compounds, 0.3% hits; AID 441; P25090; FPRL1-expressing cells, fluorescent ligand binding inhibition, flow cytometry;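 also: 0% = buffer alone and 100% = receptor blocker peptide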
Target sequence (P25090 whole entry, looked up): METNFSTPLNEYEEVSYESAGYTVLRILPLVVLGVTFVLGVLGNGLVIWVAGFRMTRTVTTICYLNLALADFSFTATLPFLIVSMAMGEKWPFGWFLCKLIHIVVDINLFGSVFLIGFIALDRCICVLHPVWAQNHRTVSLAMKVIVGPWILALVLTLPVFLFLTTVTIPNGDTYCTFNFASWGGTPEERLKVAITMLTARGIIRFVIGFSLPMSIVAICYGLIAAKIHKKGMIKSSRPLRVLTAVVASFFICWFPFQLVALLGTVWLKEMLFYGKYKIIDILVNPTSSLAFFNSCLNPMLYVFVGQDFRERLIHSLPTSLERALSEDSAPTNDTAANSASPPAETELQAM
The depositor's hits bear a star.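 The calls were made as follows, unless noted: active = mean above 30%; inconclusive = self-fluorescent; inactive = the rest.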 An excerpt; count on the stated rates, not on these rows.

O=C(C1CCCN(S(=O)(=O)c2cccc3nsnc23)C1)N1CCc2ccccc21 (stereo unspecified) was read as FPR binder -1.3 and FPRL1 ligand 7.8.
Screening COc1ccc(-c2noc(CCC(=O)N(C)c3cccc(C)c3)n2)cc1 returned FPR binder 3.5 and FPRL1 ligand -2.0.
Cc1cccc(OCCNC(=O)c2ncn[nH]2)c1 was read as VCAM-1 down inactive, VCAM-1 down imaging inactive, VCAM-1 augmentation inactive, FPR binder -3.3 and FPRL1 ligand 1.9.
For Cc1nnc(SCc2nnc(-c3ccccc3Br)o2)n1-c1ccccc1 the results were VCAM-1 down inactive, VCAM-1 down imaging inactive, VCAM-1 augmentation inactive, FPR binder -11.1 and FPRL1 ligand 2.6.
Screening CCOCCn1c(CN2CCC(Cc3ccccc3)CC2)nc2c1c(=O)n(C)c(=O)n2C returned VCAM-1 down inactive, VCAM-1 down imaging inactive, VCAM-1 augmentation inactive, FPR binder 10.1 and FPRL1 ligand 1.6.
For Cc1nccn1CCc1n[nH]c(=S)n1Cc1ccccc1 the results were FPR binder -0.5 and FPRL1 ligand 6.0.
Cc1occc1-c1nnc(SCC(=O)NCC2CCCO2)n1C (stereo unspecified) was read as VCAM-1 down inactive, VCAM-1 down imaging inactive, VCAM-1 augmentation inactive, FPR binder 1.6 and FPRL1 ligand 1.9.
O=C(Nc1ccc(O)cc1)C1CCCN1S(=O)(=O)c1ccc(F)cc1 (stereo unspecified) was read as VCAM-1 down inactive, VCAM-1 down imaging inactive, VCAM-1 augmentation inactive, FPR binder 1.2 and FPRL1 ligand 2.6.
`CC1=C(C(N)=O)C(c2ccc(Cl)cc2Cl)n2ncnc2N1` (stereo unspecified) gave VCAM-1 down inactive, VCAM-1 down imaging inactive, VCAM-1 augmentation inactive, FPR binder 3.8 and FPRL1 ligand 1.9.
c1ccc2c(c1)CCN(c1nc3ccccc3n3cnnc13)C2 was read as FPR binder -1.0 and FPRL1 ligand 4.5.
`CCCCn1c(=S)[nH]c2c(oc3ccc(Cl)cc32)c1=O` gave FPR binder 12.1 and FPRL1 ligand -4.8.
`CC(=O)NCCC(=O)Nc1ccc(C)c(F)c1` gave VCAM-1 down inactive, VCAM-1 down imaging inactive, VCAM-1 augmentation inactive, FPR binder 0.1 and FPRL1 ligand 3.6.
For CCc1nnc(NC(=O)CSc2nnc3ncccn23)s1 the results were VCAM-1 down inactive, VCAM-1 down imaging inactive, VCAM-1 augmentation inactive, FPR binder -5.7 and FPRL1 ligand 7.3.
Screening COc1ccc(S(=O)(=O)Nc2cc(C(=O)NCCC(C)C)ccc2N2CCOCC2)cc1 returned FPR binder 9.5 and FPRL1 ligand 4.5.
Cc1cc(NC(=O)c2noc3c2CCc2ccccc2-3)no1 was read as FPR binder 2.5 and FPRL1 ligand -1.5.
`N#C/C(C(=O)NCc1ccco1)=C1/SC(Cc2ccc(F)cc2)C(=O)N1c1ccccc1` (stereo unspecified) gave VCAM-1 down inactive, VCAM-1 down imaging inactive, VCAM-1 augmentation inactive, FPR binder 15.5 and FPRL1 ligand -3.4.
`CC(C)NC(=O)Nc1cccs1` gave VCAM-1 down inactive, VCAM-1 down imaging inactive, VCAM-1 augmentation inactive, FPR binder -4.1 and FPRL1 ligand 3.2.
For Cc1c(C(=O)NCc2ccoc2)oc2ccc3c(c12)C(=O)CC(C)(C)O3 the results were VCAM-1 down 88.0, VCAM-1 down imaging 80.0%, VCAM-1 augmentation inactive, FPR binder -0.6 and FPRL1 ligand -0.3.
`Cc1ccc(-n2c(=O)cc(N3CCC(C)CC3)[nH]c2=O)cc1` gave FPR binder -2.4 and FPRL1 ligand -5.3.
For CN(C)CCCN1C(=O)CSC1c1ccccc1 (stereo unspecified) the results were VCAM-1 down inactive, VCAM-1 down imaging inactive, VCAM-1 augmentation inactive, FPR binder -5.2 and FPRL1 ligand -1.7.
For CCOC(=O)C(CC)n1cnc2c(nnn2-c2ccc(OC)cc2)c1=O (stereo unspecified) the results were FPR binder 5.2 and FPRL1 ligand 2.1.
Screening Nc1ccccc1OCCOCCOc1ccccc1N returned FPR binder 3.8 and FPRL1 ligand 1.3.
Screening c1ccc(CC2CCN(c3nc4ccccc4n4nnnc34)CC2)cc1 returned VCAM-1 down inactive, VCAM-1 down imaging inactive, VCAM-1 augmentation inactive, FPR binder -3.4 and FPRL1 ligand -10.6.
`O=C(c1ccco1)N1CCN(CC(=O)N(C2CCCCC2)C2CCS(=O)(=O)C2)CC1` (stereo unspecified) gave VCAM-1 down inactive, VCAM-1 down imaging inactive, VCAM-1 augmentation inactive, FPR binder -3.9 and FPRL1 ligand -0.6.
COc1cccc(NC2SC(=O)N(c3ccccc3)C2=O)c1 (stereo unspecified) was read as FPR binder -1.8 and FPRL1 ligand 0.8.
Screening Cc1cccc(C)c1OCc1nnc2c3cnn(C)c3ncn12 returned VCAM-1 down inactive, VCAM-1 down imaging inactive, VCAM-1 augmentation inactive, FPR binder -0.2 and FPRL1 ligand 2.9.
For Cc1nn(C)cc1NC(=O)CCSc1nc(-c2ccco2)cc(C(F)(F)F)n1 the results were VCAM-1 down inactive, VCAM-1 down imaging inactive, VCAM-1 augmentation inactive, FPR binder -8.0 and FPRL1 ligand 0.2.
Screening O=C(Nc1ccc2c(c1)OCCO2)C1CCN(S(=O)(=O)c2ccc(Br)s2)CC1 returned FPR binder 10.9 and FPRL1 ligand 8.3.
For CN(C(=O)COc1cccc(Br)c1)C1CCS(=O)(=O)C1 (stereo unspecified) the results were FPR binder 4.8 and FPRL1 ligand 0.5.
CCCCC(=O)Nc1nn(CCC)c2nc3ccccc3cc12 was read as VCAM-1 down inactive, VCAM-1 down imaging inactive, VCAM-1 augmentation inactive, FPR binder 4.3 and FPRL1 ligand -0.3.

Next part; it opens with the 2 that closed the last part.
For CN(C(=O)COc1cccc(Br)c1)C1CCS(=O)(=O)C1 (stereo unspecified) the results were FPR binder 4.8 and FPRL1 ligand 0.5.
CCCCC(=O)Nc1nn(CCC)c2nc3ccccc3cc12 was read as VCAM-1 down inactive, VCAM-1 down imaging inactive, VCAM-1 augmentation inactive, FPR binder 4.3 and FPRL1 ligand -0.3.
`CCOC(=O)C1CCN(S(=O)(=O)c2ccc3[nH]c(=O)oc3c2)CC1` gave FPR binder -13.1 and FPRL1 ligand -3.8.
For COc1ccccc1Cn1c(-c2ccco2)nc2nc3ccccc3nc21 the results were VCAM-1 down inactive, VCAM-1 down imaging inactive, VCAM-1 augmentation inactive, FPR binder 5.3 and FPRL1 ligand -8.7.
For CCOC(=O)c1ccc(N2C(=O)C3ON(c4ccccc4)C(c4ccco4)C3C2=O)cc1 (stereo unspecified) the results were FPR binder 3.5 and FPRL1 ligand -0.7.
COc1ccc(S(=O)(=O)C(C#N)c2nc3ccccc3nc2N2CCCC(C)C2)cc1 (stereo unspecified) was read as VCAM-1 down inactive, VCAM-1 down imaging inactive, VCAM-1 augmentation inactive, FPR binder 5.4 and FPRL1 ligand -5.1.
COc1ccc(Nc2nc(-c3sc(N)nc3C)cs2)cc1 was read as VCAM-1 down inactive, VCAM-1 down imaging inactive, VCAM-1 augmentation inactive, FPR binder -7.4 and FPRL1 ligand 3.4.
`Cc1cc(C)cc(NC(=O)N2CCC(c3nc4ccccc4o3)CC2)c1` gave VCAM-1 down inactive, VCAM-1 down imaging inactive, VCAM-1 augmentation inactive, FPR binder 3.1 and FPRL1 ligand -4.8.
N#Cc1c(C(F)(F)F)cc(-c2ccccc2)nc1SCc1nc(N)nc(N2CCOCC2)n1 was read as FPR binder inconclusive and FPRL1 ligand 46.8*.
`COc1ccccc1Cn1c(=O)[nH]c2cccnc21` gave FPR binder -11.4 and FPRL1 ligand -14.2.
Screening Cc1ccc(-c2nc3cnccn3c2Nc2ccc3c(c2)OCCO3)o1 returned FPR binder 2.7 and FPRL1 ligand 3.0.
For CC(=O)N1CCc2cc(S(=O)(=O)NC(C(=O)NCc3ccccc3)C(C)C)ccc21 (stereo unspecified) the results were VCAM-1 down inactive, VCAM-1 down imaging inactive, VCAM-1 augmentation inactive, FPR binder 0.0 and FPRL1 ligand -2.2.
COc1ccc2nc(NC(=O)c3ccoc3C)sc2c1 was read as VCAM-1 down inactive, VCAM-1 down imaging inactive, VCAM-1 augmentation inactive, FPR binder 1.2 and FPRL1 ligand -3.6.
`Oc1ccc2ccccc2c1CN1CCN(c2ccccc2F)CC1` gave VCAM-1 down inactive, VCAM-1 down imaging inactive, VCAM-1 augmentation inactive, FPR binder -0.2 and FPRL1 ligand -3.8.
CCCCOC(=O)C1=C(C)Nc2ncnn2C1c1cc(OC)c(OC)cc1OC (stereo unspecified) was read as FPR binder 1.9 and FPRL1 ligand -6.9.
Screening COCCNc1nc(=S)[nH]c2cc(OC)c(OC)cc12 returned FPR binder -3.6 and FPRL1 ligand 2.4.
Cc1nc2ccccc2n1-c1nc(-c2ccco2)cc(C(F)(F)F)n1 was read as FPR binder 3.3 and FPRL1 ligand 0.7.

As a working copy, 4 of the compounds above:
COc1ccc(S(=O)(=O)C(C#N)c2nc3ccccc3nc2N2CCCC(C)C2)cc1 (stereo unspecified) was read as VCAM-1 down inactive, VCAM-1 down imaging inactive, VCAM-1 augmentation inactive, FPR binder 5.4 and FPRL1 ligand -5.1.
COc1ccc(Nc2nc(-c3sc(N)nc3C)cs2)cc1 was read as VCAM-1 down inactive, VCAM-1 down imaging inactive, VCAM-1 augmentation inactive, FPR binder -7.4 and FPRL1 ligand 3.4.
`Cc1cc(C)cc(NC(=O)N2CCC(c3nc4ccccc4o3)CC2)c1` gave VCAM-1 down inactive, VCAM-1 down imaging inactive, VCAM-1 augmentation inactive, FPR binder 3.1 and FPRL1 ligand -4.8.
N#Cc1c(C(F)(F)F)cc(-c2ccccc2)nc1SCc1nc(N)nc(N2CCOCC2)n1 was read as FPR binder inconclusive and FPRL1 ligand 46.8*.

Next results
Screening CCOc1ccccc1C(=O)N1CCN=C1SC returned FPR binder 2.2 and FPRL1 ligand -0.3.
Screening CC1CCc2nn(CC(=O)Nc3ccc(F)cc3F)cc2C1 (stereo unspecified) returned VCAM-1 down inactive, VCAM-1 down imaging inactive, VCAM-1 augmentation inactive, FPR binder -1.4 and FPRL1 ligand -7.7.
CCC[C@@H]1C[C@@H](C(=O)N[C@H]([C@@H](C)O)[C@H]2O[C@H](SC)[C@H](O)[C@@H](O)C2O)N(C)C1 (stereo partly specified) was read as VCAM-1 down inactive, VCAM-1 down imaging inactive, VCAM-1 augmentation inactive, FPR binder 5.8 and FPRL1 ligand 1.4.
Screening O=C(O)CCCC(=O)N1CCN(c2nc(-c3ccccc3)c3ccccc3n2)CC1 returned FPR binder -0.2 and FPRL1 ligand -1.2.
`CC(Oc1ccccc1)C(=O)NC1CCN(Cc2ccccc2)CC1` (stereo unspecified) gave VCAM-1 down inactive, VCAM-1 down imaging inactive, VCAM-1 augmentation inactive, FPR binder -3.2 and FPRL1 ligand -3.6.
For Cc1cccc(CS(=O)(=O)Cc2ccc(C(=O)O)o2)c1 the results were FPR binder 2.3 and FPRL1 ligand 1.4.
CCOC(=O)CSc1nc2ccccc2c(=O)n1CC1COc2ccccc2O1 (stereo unspecified) was read as FPR binder -0.4 and FPRL1 ligand -1.7.
`C=C1Cn2c(nnc2-c2ccc(Cl)cc2)S1` gave FPR binder -1.0 and FPRL1 ligand 4.3.
Screening Cc1noc(C)c1S(=O)(=O)Nc1ccc(C(=O)N2CCN(c3ccc(Cl)cc3)CC2)cc1 returned FPR binder -2.7 and FPRL1 ligand -1.0.
O=C(CN1CCN(S(=O)(=O)c2ccc(F)cc2)CC1)Nc1ccc2c(c1)OCCO2 was read as FPR binder 4.0 and FPRL1 ligand 1.4.
Screening COC(=O)C(C)Sc1nc(-c2ccc(OC)cc2)nc2c1c(=O)n(C)c(=O)n2C (stereo unspecified) returned FPR binder -5.1 and FPRL1 ligand 0.5.
For COc1ccc(N2CCN(C(=O)CSc3nnc(Cn4nnc5ccccc54)n3C)CC2)cc1 the results were VCAM-1 down inactive, VCAM-1 down imaging inactive, VCAM-1 augmentation inactive, FPR binder -4.1 and FPRL1 ligand 4.7.
For O=C(Nc1ccc(Cc2ccncc2)cc1)c1ccc(S(=O)(=O)N2CCOCC2)cc1 the results were FPR binder 0.5 and FPRL1 ligand 3.0.
Screening Cc1c(C(=O)O)oc2ccc(S(=O)(=O)N3CCCCC3C(=O)O)cc12 (stereo unspecified) returned FPR binder -5.1 and FPRL1 ligand 11.2.
O=C(c1cnc2sccn2c1=O)N1CCc2ccccc2C1 was read as VCAM-1 down inactive, VCAM-1 down imaging inactive, VCAM-1 augmentation inactive, FPR binder -5.1 and FPRL1 ligand 0.6.
`Cc1ccc(N(C(=O)C2CCC(=O)N2)C2(C(=O)NC3CCCCC3)CCCCC2)cc1` (stereo unspecified) gave VCAM-1 down inactive, VCAM-1 down imaging inactive, VCAM-1 augmentation inactive, FPR binder -3.7 and FPRL1 ligand -1.7.
